PMI activator – activators of human PMI, primary screen, biochemical, fluorescence intensity, near-Km mannose 6-phosphate; Mannose-6-phosphate isomerase (Homo sapiens), P34949; purified human PMI, coupled resazurin fluorescence, 20 min; stronger effect = higher value; 1 = vehicle control, 0 substrate-free wells; activation factor at 20 µM; actives 0.005% (n = 190,000); AID 1214, 2008;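 active means activation factor of 2 or more at 20 µM, relative to plate controls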
TNAP inh no acc – human TNAP enzyme inhibitors, primary screen, biochemical, luminescent, no phosphate acceptor, uHTS; actives 0.26% (n = 200,000); Alkaline phosphatase, tissue-nonspecific isozyme (Homo sapiens), P05186; AID 1012, 2008; inhibition, % at 20 µM; purified TNAP, CDP-star luminescence, 30 min;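 active means tissue-nonspecific alkaline phosphatase inhibition above about 50% at 20 µM in the single-dose screen, limit read from the data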;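 further: 0% = DMSO negative control and 100% = EDTA positive control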
Target sequence (P05186 whole entry, looked up): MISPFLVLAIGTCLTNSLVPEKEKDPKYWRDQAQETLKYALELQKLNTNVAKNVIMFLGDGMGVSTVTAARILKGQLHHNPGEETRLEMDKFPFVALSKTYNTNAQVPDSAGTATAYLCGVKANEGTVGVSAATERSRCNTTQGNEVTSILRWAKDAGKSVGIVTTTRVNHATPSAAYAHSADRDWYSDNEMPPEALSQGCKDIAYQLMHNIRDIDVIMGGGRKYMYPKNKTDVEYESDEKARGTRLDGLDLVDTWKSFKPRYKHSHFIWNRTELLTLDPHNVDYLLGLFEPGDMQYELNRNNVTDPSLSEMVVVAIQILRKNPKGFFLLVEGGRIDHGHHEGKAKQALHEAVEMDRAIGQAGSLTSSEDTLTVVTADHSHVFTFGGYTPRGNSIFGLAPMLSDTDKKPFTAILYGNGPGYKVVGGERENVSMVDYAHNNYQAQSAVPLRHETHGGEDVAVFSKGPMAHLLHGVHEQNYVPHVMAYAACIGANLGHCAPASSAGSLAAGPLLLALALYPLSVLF
Diaph inh CS – diaphorase inhibitors and chemical oxidizers, primary screen, counter-screen for diaphorase-coupled primary assays, biochemical, uHTS, resorufin fluorescence; diaphorase resazurin-to-resorufin fluorescence, NADH, 16 min; bacterial (C. kluyveri) enzyme, not human; inhibition, % at 20 µM; actives 0.69% (n = 190,000); AID 1217, 2008;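 active means primary screen inhibition at 20 µM above a set limit, cut at about 50% in these data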;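 further: plate controls were DMSO with full reaction for no effect and wells lacking NADH for full effect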
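Benchmarks: positive control wells lacking NADH, neutral wells with DMSO only. System: bacterial diaphorase enzyme (C. kluyveri). Input: 0.14 U/mL diaphorase, enzyme working solution. Detection: resorufin fluorescence, excitation 544 nm, emission 590 nm. Times: 16-min room-temperature incubation before reading.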
Diaph act CS – compounds boosting diaphorase resazurin reduction – biochemical, uHTS, resorufin fluorescence, counter-screen for diaphorase-coupled primary assays, primary screen | Diaphorase/resazurin coupled assay, 16 min; stronger effect = higher value; 1 = vehicle wells, 0 = NADH-free wells | actives 0.005% (n = 190,000) | activation factor at 20 µM;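 active means diaphorase activity raised at least twofold by the compound at 20 µM; inactive means activation factor below 2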
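Assay system: bacterial diaphorase enzyme (C. kluyveri) / Input: enzyme 0.07 U/mL final / Medium: 50 mM HEPES pH 7.4 with 4.542 mM MgCl2, 0.005% Tween 20 / Doses: single compound dose of 20 µM, 1% DMSO final / Incubation: 16 min enzyme reaction, ambient temperature / Signal: fluorescence, excitation 544 nm and emission 590 nm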
PMI act hi M6P – human PMI activators, high substrate, primary screen, biochemical, fluorescence intensity, near-saturating mannose 6-phosphate; AID 1216, 2008; Mannose-6-phosphate isomerase (Homo sapiens), P34949; coupled PMI enzyme assay, resazurin fluorescence, 20 min; stronger effect = higher value; 1 = untreated enzyme, 0 = substrate-free blank; actives 0.34% (n = 190,000); activation factor at 20 µM;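 active means activation factor of 2 or more at 20 µM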
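Technique: Diaphorase-driven resazurin-to-resorufin fluorescence, excitation 544, emission 590 nm | Assay system: Human PMI in coupled enzyme assay | Times: Enzyme reaction with compound 20 min at room temperature | Medium: HEPES-buffered pH 7.4 with magnesium and detergent | Reagent: Mannose-6-phosphate 1.0 mM (near-saturating) plus 0.22 mM NADP+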
TNAP inh hi DEA – human TNAP enzyme inhibitors, primary screen, biochemical, luminescent, high phosphate acceptor level, uHTS | AID 1135, 2008 | Alkaline phosphatase, tissue-nonspecific isozyme (Homo sapiens), P05186 | purified TNAP, CDP-star luminescence, 1 M DEA | actives 0.03% (n = 200,000) | inhibition, % at 20 µM;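 active means over 50% inhibition of tissue-nonspecific alkaline phosphatase at 20 µM in the single-dose screen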;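 further: plate controls were DMSO wells for no effect and EDTA-quenched wells as full inhibition for full effect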
Efa HMGR inh – inhibitors of E. faecalis class II HMGR, primary screen, biochemical, Enterococcus faecalis; HMG-CoA reductase (Enterococcus faecalis, mvaE); purified E. faecalis HMGR, NADPH absorbance 340 nm kinetic; inhibition, % at 10 µM; actives 0.41% (n = 190,000);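 active means inhibition above a set limit, the median over all tested compounds plus 3 SD, cut at about 9.5% in these data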;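 further: enzyme runs in reverse so mevalonate oxidation gives rising NADPH absorbance; 0% = complete reaction with DMSO and 100% = background rate lacking mevalonate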
G6PDH CS – L. mesenteroides G6PDH inhibitors, counter-screen for G6PDH-coupled screening assays, biochemical, Leuconostoc mesenteroides enzyme. Purified L. mesenteroides G6PDH, diaphorase/resazurin coupled fluorescence, 45 min. inhibition, % at 5 µM. actives 0.12% (n = 200,000); in the data active means inhibition above about 50%
TNAP act hi DEA – TNAP activators at high phosphate acceptor level, primary screen, biochemical, luminescence, uHTS. activation factor at 20 µM. 200,000 tested, under 10 active. AID 1136, 2008. Alkaline phosphatase, tissue-nonspecific isozyme (Homo sapiens), P05186. purified TNAP, CDP-star luminescence, 1 M DEA, 30 min; stronger effect = higher value; 0 = EDTA background, 1 = DMSO-only activity;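 active means activation factor at least 2 at 20 µM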
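system = human TNAP | amount = enzyme diluted 1/800 final | reagent = 100 µM CDP-star substrate | signal = luminescent substrate turnover signal | dosing = one dose, 20 µM | benchmarks = EDTA negative control, DMSO positive control | measure = activation factor | timing = 30 min reaction, room temperature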
Active calls of the source: *; & = joins results of further samples. Only part of the results is shown (hit frequency here may not be typical).

Preview (five entries):
SMILES | PMI activator | TNAP inh no acc | Diaph inh CS | Diaph act CS | PMI act hi M6P | TNAP inh hi DEA | Efa HMGR inh | G6PDH CS | TNAP act hi DEA
Cc1cc(C(=O)COC(=O)c2ccco2)c(C)n1Cc1ccco1 | 1.1 | -3.9 | 9.8 | 0.9 | 1 | -3.2 | -5.2 | 0.3 | 1
COc1ccccc1NC(=O)Nc1ccc2c(c1)OCCO2 | 0.9 | -17.6 | 12.9 | 0.9 | 0.9 | -7.5 | -1.3 | -17.0 | 1.1
COc1ccccc1-c1noc(-c2ccccc2)n1 | 0.9 | -6.4 | 11.6 | 0.9 | 0.9 | -2.0 | -9.2 | 12.2 | 1
O=C(COc1ccc(F)cc1)Nc1nccs1 | 1.1 | -9.9 | -6.4 | 1.1 | 1.1 | -6.8 | -1.5 | -0.8 | 1.1
CN(C)CCCN1c2ccccc2CCc2ccc(Cl)cc21 | 1.1 | -8.0 | 10.3 | 0.9 | 0.9 | -0.9 | -9.6 | -1.7 | 1

Main list, repeating the preview:
SMILES | PMI activator | TNAP inh no acc | Diaph inh CS | Diaph act CS | PMI act hi M6P | TNAP inh hi DEA | Efa HMGR inh | G6PDH CS | TNAP act hi DEA
Cc1cc(C(=O)COC(=O)c2ccco2)c(C)n1Cc1ccco1 | 1.1 | -3.9 | 9.8 | 0.9 | 1 | -3.2 | -5.2 | 0.3 | 1
COc1ccccc1NC(=O)Nc1ccc2c(c1)OCCO2 | 0.9 | -17.6 | 12.9 | 0.9 | 0.9 | -7.5 | -1.3 | -17.0 | 1.1
COc1ccccc1-c1noc(-c2ccccc2)n1 | 0.9 | -6.4 | 11.6 | 0.9 | 0.9 | -2.0 | -9.2 | 12.2 | 1
O=C(COc1ccc(F)cc1)Nc1nccs1 | 1.1 | -9.9 | -6.4 | 1.1 | 1.1 | -6.8 | -1.5 | -0.8 | 1.1
CN(C)CCCN1c2ccccc2CCc2ccc(Cl)cc21 | 1.1 | -8.0 | 10.3 | 0.9 | 0.9 | -0.9 | -9.6 | -1.7 | 1
COc1ccc(Cl)cc1C(=O)NCCc1ccc(S(=O)(=O)NC(=O)NC2CCCCC2)cc1 | 1 | -10.3 | 9.1 | 0.9 | 1 | -3.3 | -2.2 | 7.2 | 1
Cc1csc(NC(=O)Nc2ccccc2[N+](=O)[O-])n1 | 0.9 | 4.1 | 4.6 | 1 | 0.9 | 7.5 | -2.8 | 11.7 | 0.9
c1coc(-c2nc(-c3ccncc3)no2)c1 | 0.9 | -12.7 | 16.4 | 0.8 | 0.9 | -4.2 | -4.7 | -15.4 | 1
COc1ccc(CCN2CCC(Nc3nc4ccccc4n3Cc3ccc(F)cc3)CC2)cc1 | 0.9 | -7.5 | 12.2 | 0.9 | 1 | -1.5 | -0.7 | 15.2 | 1
Cc1nc(-c2ccc(C(=O)Nc3ccc(F)cc3)cc2)cs1 | 1 | -7.9 | -16.4 | 1.2 | 1 | -3.4 | -3.6 | 3.0 | 1
c1ccn2cc(-c3ccc4c(c3)OCCO4)nc2c1 | 1.3 | -4.9 | 6.0 | 0.9 | 1.1 | -0.7 | 0.9 | 4.3 | 1
CN(C)CCCN1c2ccccc2Sc2ccc(Cl)cc21 | 1.1&1 | -7.8&-3.1 | -3.3&-0.3 | 1&1 | 0.9&0.9 | -0.5&-0.9 | -6.0&-9.8 | 13.1&1.7 | 1&1
COc1ccc(-c2noc(-c3ccccc3F)n2)cc1 | 0.9 | -1.2 | 23.4 | 0.8 | 0.9 | -0.1 | -1.6 | 3.5 | 1
Clc1cccc(Cl)c1NC1=NCCN1 | 1.3 | -1.8 | -8.2 | 1.1 | 1.2 | 3.4 | 1.9 | -2.3 | 1
COc1ccc(-c2nc(-c3ccccc3)no2)c(OC)c1 | 0.9 | -7.3 | 3.8 | 1 | 0.9 | -2.8 | -1.6 | -31.2 | 1
CC(=O)Nc1c(I)c(NC(C)=O)c(I)c(C(=O)O)c1I | 1 | -8.3 | 1.0 | 1 | 1 | -0.5 | 2.7&-11.7 | 12.4 | 1
O=c1n(CCCN2CCN(c3cccc(Cl)c3)CC2)nc2ccccn12 | 1.2 | -10.6 | 18.7 | 0.8 | 1.1 | -4.3 | -1.6 | 6.5 | 1
CCc1cc(C(N)=S)ccn1 | 1 | -12.1 | -0.7 | 1 | 1.1 | -2.5 | 3.6 | 4.3 | 1
O=C(COC(=O)c1cccnc1Cl)c1ccc2c(c1)OCCO2 | 1.3 | -5.1 | -7.7 | 1.1 | 1.3 | -1.3 | -1.7 | 3.5 | 1
Cc1ccc(NC(=O)C(=O)Nc2ccccn2)cc1 | 1 | -8.9 | 4.3 | 1 | 1 | 0.9 | -1.6 | 9.9 | 1

4 compounds out of the list, sorted by formula weight, lowest first.
SMILES | PMI activator | TNAP inh no acc | Diaph inh CS | Diaph act CS | PMI act hi M6P | TNAP inh hi DEA | Efa HMGR inh | G6PDH CS | TNAP act hi DEA
c1ccn2cc(-c3ccc4c(c3)OCCO4)nc2c1 | 1.3 | -4.9 | 6.0 | 0.9 | 1.1 | -0.7 | 0.9 | 4.3 | 1
CN(C)CCCN1c2ccccc2Sc2ccc(Cl)cc21 | 1.1&1 | -7.8&-3.1 | -3.3&-0.3 | 1&1 | 0.9&0.9 | -0.5&-0.9 | -6.0&-9.8 | 13.1&1.7 | 1&1
O=C(COC(=O)c1cccnc1Cl)c1ccc2c(c1)OCCO2 | 1.3 | -5.1 | -7.7 | 1.1 | 1.3 | -1.3 | -1.7 | 3.5 | 1
CC(=O)Nc1c(I)c(NC(C)=O)c(I)c(C(=O)O)c1I | 1 | -8.3 | 1.0 | 1 | 1 | -0.5 | 2.7&-11.7 | 12.4 | 1

Following part.
SMILES | PMI activator | TNAP inh no acc | Diaph inh CS | Diaph act CS | PMI act hi M6P | TNAP inh hi DEA | Efa HMGR inh | G6PDH CS | TNAP act hi DEA
COc1ccccc1C(=O)Nc1nc2cc3c(cc2s1)OCCO3 | 0.9 | -10.1 | 10.5 | 0.9 | 1 | -5.9 | -2.4 | 5.0 | 1.1
Cc1ccn2cc(-c3cccc([N+](=O)[O-])c3)nc2c1 | 0.9 | -2.9 | 10.3 | 0.9 | 1 | -6.4 | -5.2 | 4.4 | 1.1
CCCOc1ccc(-c2cn3ccccc3n2)cc1 | 1.2 | -12.3 | -7.3 | 1.1 | 1.2 | -2.2 | -1.2 | -0.9 | 1
COc1cccc(C(=O)Nc2ccc(C)cc2)c1 | 0.9 | -2.6 | 10.3 | 0.9 | 1 | 6.0 | 3.1 | -8.4 | 0.9
c1ccc(-c2noc(-c3ccco3)n2)nc1 | 0.9 | -13.8 | 17.0 | 0.8 | 0.9 | -5.5 | -3.3 | -3.0 | 1.1
O=C(Nc1ccc(-c2nc3ccccc3s2)cc1)C1=COCCO1 | 0.9 | -16.5 | 6.8 | 0.9 | 1 | 1.5 | -3.4 | 3.4 | 1
